Source: PubChem BioAssay (several laboratories)
UUG fidelity = alters start codon recognition fidelity in yeast | S. cerevisiae UUG-firefly luciferase reporter, luminescence/redox ratio | activity score, % at 18.7 µM | 350,000 compounds, 0.13% hits | AID 602363;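 active = replicate mean at a twofold rise or more, about +100% in these data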;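 note: firefly luciferase made from a UUG start codon reports start codon fidelity; reporter light over untreated wells divided by growth signal over untreated wells; some hits fall short of that in this replicate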
Rce1 inh = inhibitors of yeast Ras-converting enzyme. Q03530. yeast membranes, quenched prenylated peptide cleavage fluorescence. calls only. 290,000 compounds, 0.27% hits;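 active = fall in fluorescence gain of 50% or more versus controls, with final raw signal at or below 3038400; inconclusive = same 50% fall but final raw signal above 3038400; inactive = fall in fluorescence gain under 50%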;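 note: plate controls were neutral control wells for no effect and wells lacking membranes for full effect; tested at 10 µM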
CSC inhib = blocks cancer stem cells; AID 2717; 300,000 compounds, 1.1% hits; cancer stem cell-like cells viability, luminescence; inhibition, % at 7.5 µM;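 active = mean at 75% or more and at least half the replicates too; inconclusive = mean and replicates disagree; tested in HMLE shEcad cells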;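 note: 0% = median of negative and 100% = median of positive control wells; the first replicate is given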
Env fusion inh = HIV envelope-mediated fusion inhibition; HeLa-JRFL Env/CEM21 cell fusion, luciferase; inhibition, % at 12.3 µM; 360,000 compounds, 1.1% hits; AID 651610;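 active = mean replicate inhibition score of at least 50 and every replicate individually at or above 50; inconclusive = only one of the two criteria met; inactive = mean below 50 and not all replicates reaching 50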;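 note: 0% = plate neutral controls and 100% = maraviroc near 300 nM; one replicate is shown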
MT1-MMP act inh = MT1-MMP (human) activation inhibition. GFP/RFP ratio change, % at 20 µM. P50281. HT1080 RFP-PRO-GFP cells, GFP/RFP ratio fluorescence, overnight; percent of plate control window, DMSO zero. 360,000 compounds, 0.061% hits. AID 651647;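 active = GFP/RFP ratio change of at least 30% with cell ATP level not reduced by more than half and red fluorescence within 50% of control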; note: strong numbers were not always called active
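Assay system: HT1080 RFP-PRO-GFP cells. Benchmarks: DMSO vehicle wells and RFP-L50D-GFP reporter cell wells. Times: overnight cell settling, then overnight compound exposure, 37 °C, 5% CO2. Compound: 20 µM single dose, 1% DMSO. Read-out basis: GFP/RFP fluorescence ratio.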
eIF4H FP inh = inhibitors of RNA binding by human eIF4H; 290,000 compounds, 0.94% hits; Q15056; eIF4H fluorescence polarization binding assay; AID 2012; inhibition, % at 35 µM;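 active = 50% or more with normal probe brightness, or confirmed in later tests; inconclusive = above 50% with abnormal brightness, or retests that disagree; inactive = below 50% or failed in later tests; about a fifth of its hits are not listed in these tables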;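 note: calls also rest on retests at 20 µM and on dose response follow-up; 0% = protein and probe with vehicle and 100% = probe without protein; strong numbers were not always called active; many hits fall short of the cut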
PABP FP inh = blocks human PABP binding to poly(A) RNA; inhibition, % at 35 µM; 290,000 compounds, 1% hits; AID 2014; fluorescence polarization;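 active = 50% or more with normal probe brightness, or confirmed in later tests; inconclusive = above 50% with abnormal brightness, or retests that disagree; inactive = below 50% or failed in later tests; about a fifth of its hits are not listed in these tables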;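 note: calls also rest on retests at 20 µM and on dose response follow-up; controls were probe without protein and protein plus probe with vehicle; some compounds called inactive have numbers as strong as hits; many hits fall short of the cut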
Target sequence (P11940 whole entry, looked up): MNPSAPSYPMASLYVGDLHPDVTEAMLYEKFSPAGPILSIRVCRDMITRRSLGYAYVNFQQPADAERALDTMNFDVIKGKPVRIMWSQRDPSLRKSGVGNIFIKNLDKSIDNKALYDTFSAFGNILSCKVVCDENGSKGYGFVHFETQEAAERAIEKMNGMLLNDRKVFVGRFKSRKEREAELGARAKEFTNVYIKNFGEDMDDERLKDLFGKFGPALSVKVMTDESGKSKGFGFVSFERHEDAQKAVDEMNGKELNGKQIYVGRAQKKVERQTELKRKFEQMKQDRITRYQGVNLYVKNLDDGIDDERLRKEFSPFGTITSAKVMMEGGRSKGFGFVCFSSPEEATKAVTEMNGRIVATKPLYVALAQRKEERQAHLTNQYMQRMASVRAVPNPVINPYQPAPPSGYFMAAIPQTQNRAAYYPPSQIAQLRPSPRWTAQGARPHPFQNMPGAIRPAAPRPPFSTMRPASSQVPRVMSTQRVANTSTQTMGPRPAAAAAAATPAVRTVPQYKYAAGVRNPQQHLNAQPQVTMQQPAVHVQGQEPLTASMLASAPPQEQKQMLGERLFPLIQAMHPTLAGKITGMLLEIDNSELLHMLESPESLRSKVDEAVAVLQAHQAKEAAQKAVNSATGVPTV
eIF4H FP inh retest = recorded beside eIF4H FP inh, whose call it bears; inhibition, %; compound at 20 µM; confirmation average;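 mean of two retest wells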
PABP FP inh retest = second read-out of PABP FP inh, no call of its own (marks repeat the call); inhibition, %; compound at 20 µM; confirmation repeats;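 mean of two retest wells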
MT1-MMP act inh RFP = second read-out of MT1-MMP act inh, no call of its own (marks repeat the call); RFP signal change, %; measured here: RFP expression control read;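 0 = vehicle wells; hits needed this value within 50% of zero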
An asterisk follows results filed as active; i = inactive; ? = inconclusive; nt = no result given. The list is partial; count on the stated rates, not on these rows.

SMILES	UUG fidelity	Rce1 inh	CSC inhib	Env fusion inh	MT1-MMP act inh	MT1-MMP act inh RFP	eIF4H FP inh	PABP FP inh	others
O=C(COc1ccccc1)N1CCN(C2CCCC2)CC1	-6	i	3	nt	1	4	3	23
O=C(c1ccccc1)c1cn(CC(=O)N2CCCC2)c2ccccc12	-3	i	-9	28	-2	0	-3	0
COC(=O)C1=C(N)Oc2c(c(=O)oc3ccccc23)C1c1cccnc1 (centres undefined)	-12	i	-5	nt	-2	-2	7	7
Cc1ccc(N2C(=O)NC(=O)/C(=C/c3ccc(OC(=O)c4cccs4)cc3)C2=O)cc1	-10	i	-17	-59	-4	4	-6	-3
COC(=O)C1=C(c2cccc(OCc3ccccc3)c2)C[C@@H]2CC[C@H]1N2C(=O)NCc1ccc(C(C)(C)C)cc1	-16	nt	29	-13	-9	-21	nt	nt
CCC(=NCCCN(CC)CC)c1c(O)n(C2CCCCC2)c(=O)[nH]c1=O	-13	i	-9	-38	-20	-2	-7	-6
CCCCCCN=C(C)c1c(O)n(CCCC)c(=O)[nH]c1=O	-3	i	nt	nt	-1	-3	1	-7
CN1CCN(Cc2nc3ccccc3c(=O)[nH]2)CC1	nt	i	4	nt	-2	1	-7	-14
CC1CN(C(=O)CCC(=O)N2CCC3(CC2)OCCO3)c2cc(Cl)ccc2O1 (centres undefined)	8	i	-7	-13	-6	-1	-9	8
C[C@]12CCC3C(CC[C@H]4C[C@@H](O)CC[C@]34C)C1C[C@@H](O)[C@H]2O (some centres undefined)	3	nt	-9	nt	3	1	nt	nt
Cc1cc(N2CCCC2)ccc1C=C(C#N)C#N	-12	i	13	-50	-104	9	?	-5
CC(=NCC1CCCO1)c1c(O)n(-c2ccc(C)cc2)c(=O)[nH]c1=O (centres undefined)	-17	i	-3	-55	3	-1	-4	-4
CCC(=Nc1cc(OC)ccc1OC)c1c(O)[nH]c(=O)[nH]c1=O	-14	i	-7	18	-1	0	4	-5
CCCCOc1ccc(CCN)cc1Cl	nt	i	29	nt	-5	2	2	3
C=CCn1c(O)c(C(C)=NCc2cccnc2)c(=O)[nH]c1=O	7	i	-9	-44	-1	-1	8	13
Cc1cc(OCC(=O)N2CCC(C(=O)O)(c3ccccc3)CC2)c2c(C)c(C)c(=O)oc2c1	-7	i	-7	nt	6	0	-8	-2
CC(N)Cc1c[nH]c2ccc(OCc3cccs3)cc12 (centres undefined)	-2	i	1	-8	0	2	nt	nt
CC(C)OC(=O)Nc1ccc(N=C(N)N[N+](=O)[O-])cc1	nt	i	4	12	5	5	-1	-5
O=P(NC1CCCCC1)(Oc1ccccc1)Oc1ccccc1	12	nt	nt	15	2	-1	nt	nt
Cc1ccc(NC(=O)c2ccc(C)c(S(=O)(=O)N3CCCCC3)c2)nc1	-8	i	6	-1	5	-5	nt	nt
C[C@H]1CC[C@H]2NCCN[C@H]2C1	nt	i	-2	18	2	0	-5	4
Cc1ccccc1N1C(=O)NC(=O)/C(=C\c2ccc3c(c2)CCCN3Cc2ccccc2)C1=O	-15	i	7	7	-4	11	43	-4
O=C1NC(=O)N(c2ccccc2)C(=O)/C1=C\c1ccc([N+](=O)[O-])o1	nt	i	-3	nt	nt	nt	78*	57*
Nc1ccc2nonc2c1[N+](=O)[O-]	-15	i	-11	0	-118	0	?	-3
CCn1c(O)c(C=Nc2cc(Cl)ccc2Cl)c(=O)n(CC)c1=O	nt	i	-14	0	-35	5	?	12
CN1CCN(c2ccc(NC(=O)C(C)(C)C)cc2)CC1	-16	i	-21	nt	-2	3	2	-1
COP(=O)(OC)C(NC(=O)C(C)(C)C)=C(Cl)Cl	17	i	3	13	6	-4	1	0
COc1ccc(-n2nnnc2C(c2ccccc2OC(F)(F)F)N2CCC(n3c(=O)[nH]c4ccccc43)CC2)cc1 (centres undefined)	3	nt	nt	-266	3	-10	nt	nt
CC1(C)Cc2c(sc3c2C(=O)NC(c2cccnc2)N3)CO1 (centres undefined)	-22	i	5	22	-4	6	7	24
COP(=S)(OC)SCN1C(=O)c2ccccc2C1=O	-29	i	nt	-9	3	3	3	28
O=C(/C=C/c1ccc2c(c1)OCO2)c1c(O)n(CCc2ccccc2)c(=O)[nH]c1=O	-14	i	56	0	-9	-15	10	3
CCOc1cc2c(cc1OCC)-n1cccc1C(c1ccc(OC)c(O)c1)NC2 (centres undefined)	-5	i	2	6	-6	-5	-8	1
COc1ccc(OCC(=O)N2CCN(CC3CC4C=CC3C4)CC2)cc1 (centres undefined)	-12	i	28	nt	6	2	3	22
O=c1[nH]c(=O)n(C2CCCCCC2)c(O)c1C=NC1CCN(Cc2ccccc2)CC1	-28	nt	0	nt	2	-3	-6	-13
COc1ccc2nc(NC(=O)CCc3nc(C4=CCN(C)CC4)no3)sc2c1	-6	i	7	nt	-4	1	6	-6
COc1ccc(C)cc1NC(=O)c1c(C)nn(Cc2ccccc2)c1Cl	nt	i	22	6	0	-3	-12	-18
CCN(CC)C(=O)c1ccc(NC(=O)c2cn(-c3ccccc3)nc2-c2ccc(OC)cc2)cc1	-11	i	2	nt	-1	-4	-6	7
COP(=O)(OC)C(NS(=O)(=O)c1ccccc1)C(Cl)(Cl)Cl (centres undefined)	-19	i	-9	10	3	6	-6	12
O=C1CCC2(O)C3Cc4ccc(O)c5c4C2(CCN3Cc2ccoc2)C1O5 (centres undefined)	-14	nt	nt	-10	0	-1	nt	nt
CCCn1nc2ccccc2c1P(=O)(N1CCOCC1)N1CCOCC1	nt	i	-2	-11	nt	nt	-7	2
O=C(NCC1=C(c2cccc3ccccc23)C[C@@H]2CC[C@H]1N2Cc1ccco1)c1cccs1	1	nt	nt	-264	-6	0	nt	nt
CN1CCN(c2ccc(N)cc2)CC1	-18	i	-15	-35	0	4	28	?
COc1ccc(F)cc1C(=O)C1CCCN(Cc2ccc(O)cc2)C1 (centres undefined)	-2	i	-4	6	2	1	0	4
Clc1ccc(N2CCN(Cc3ccccc3Cl)CC2)cc1	6	i	8	nt	-1	-3	1	11
Cc1cc(C=C2C(=O)N(C)C(=S)N(C)C2=O)c(C)n1C1CCCC1	-15	i	-8	-17	-32	12	2	10
Cc1nn(Cc2ccccc2Cl)c(Cl)c1C(=O)OC(C(=O)NC(N)=O)C(C)C (centres undefined)	-9	i	-22	-4	-1	-8	7	-6
Nc1ccc(CCN2CCN(c3cccc(C(F)(F)F)c3)CC2)cc1	-3	i	95*	38	-2	-9	nt	nt
Cc1cc(C(=O)NP(=O)(N2CCOCC2)N2CCOCC2)c(C)n1C1CC1	nt	i	15	-14	-3	2	3	8
COc1ccc(CNCCc2ccccc2F)c(OC)c1C	-13	i	9	7	1	3	2	3
CCCOc1ccccc1NP(=O)(Oc1ccccc1)Oc1ccccc1	-13	i	-1	31	-3	-5	-2	13
CCC(=O)CC(c1ccccc1)c1c(O)c2ccccc2sc1=O (centres undefined)	nt	i	nt	2	1	3	-5	3
CCc1ccccc1N1C(=O)NC(=O)/C(=C\c2cc(C)n(C)c2C)C1=O	nt	i	-11	nt	2	4	66*	?	eIF4H FP inh retest=82*
O=C1CC(C(=O)N2CCC3(CC2)OCCO3)CN1CCc1ccccc1 (centres undefined)	-17	i	-7	nt	3	6	-1	11
O=C(CN1CCCCC1)c1cccc(Br)c1	-14	i	-10	nt	0	7	-6	7
COC(=O)C(C)NC(=S)N1CC2C[C@@H](C1)Cn1c2cccc1=O (some centres undefined)	nt	i	-10	2	1	7	2	3
CCCCCCn1c(O)c(C=NC2CCCCC2N)c(=O)[nH]c1=O (centres undefined)	nt	i	83*	nt	nt	nt	-3	-9
CCC(C)N1CCN(C(=O)COc2ccc3ccccc3c2)CC1 (centres undefined)	11	i	nt	2	1	4	2	16
CCNC(=O)NC(=O)C(C)OC(=O)c1c(C)nn(Cc2ccccc2Cl)c1Cl (centres undefined)	nt	i	7	22	-3	-16	7	4
O=c1c2ccccc2nc(-c2ccccc2)n1-c1cccnc1	-3	i	0	14	-3	6	-6	9
O=C(Nc1ccccc1)OC1CN=C(N[N+](=O)[O-])NC1 (centres undefined)	nt	i	-4	-1	5	8	-11	-13

Sorted by length of the SMILES (high to low): some entries from above.
SMILES	UUG fidelity	Rce1 inh	CSC inhib	Env fusion inh	MT1-MMP act inh	MT1-MMP act inh RFP	eIF4H FP inh	PABP FP inh	others
O=C1CC(C(=O)N2CCC3(CC2)OCCO3)CN1CCc1ccccc1 (centres undefined)	-17	i	-7	nt	3	6	-1	11
CCC(C)N1CCN(C(=O)COc2ccc3ccccc3c2)CC1 (centres undefined)	11	i	nt	2	1	4	2	16
O=C(CN1CCCCC1)c1cccc(Br)c1	-14	i	-10	nt	0	7	-6	7
CN1CCN(c2ccc(N)cc2)CC1	-18	i	-15	-35	0	4	28	?

The list goes on:
SMILES	UUG fidelity	Rce1 inh	CSC inhib	Env fusion inh	MT1-MMP act inh	MT1-MMP act inh RFP	eIF4H FP inh	PABP FP inh	others
CC(Cc1cccs1)NCc1ccccc1 (centres undefined)	2	i	-6	2	4	2	3	-8
CC1=CC(=C2C(=O)NC(=S)NC2=O)C=C(C(F)(F)F)N1Cc1ccccc1	nt	i	51	-134	7	-9	7	-17
Cc1nc2ccccc2n1C1CCN(Cc2nnnn2CCc2ccccc2)CC1	-12	i	3	-76	4	-1	-17	53	eIF4H FP inh retest=12;PABP FP inh retest=-10
Nc1ccc(Cc2ccc(N)cc2)cc1	-24	nt	nt	-1	6	7	nt	nt
CCN1CCN(c2nc3ccccc3s2)CC1	-4	i	-8	nt	7	6	0	-8
O=c1c2ccccc2nc(CN2CCOCC2)n1-c1ccccc1F	-8	i	-20	-19	1	5	-4	-8
CCOC(=O)C1=C(N)OC2=C(C(=O)CCC2)[C@]12C(=O)N(CC(N)=O)c1ccccc12	nt	i	-14	-9	1	4	-4	4
COc1ccccc1-n1c(-c2ccccc2)nc2ccccc2c1=O	-7	i	nt	6	3	3	-2	-4
C=CCn1c(O)c(C(CC)=NCCc2ccccc2)c(=O)[nH]c1=O	3	i	6	-18	10	2	-7	-15
Cc1cccc(N2C(=O)NC(=O)/C(=C\c3cc(C)n(-c4sc5c(c4C#N)CCCC5)c3C)C2=O)c1C	nt	i	21	-58	6	0	36	10
COC(=O)NC(=S)Nc1ccccc1NC(=S)NC(=O)OC	-13	nt	nt	5	-2	-2	nt	nt
O=C(c1ccc2c(c1)N(Cc1ccccc1)CCS2)N1CCC2(CC1)OCCO2	-9	i	4	-2	-4	-1	-2	10
O=C(C1c2ccccc2C(=O)N2CCc3ccccc3C12)N1CCC2(CC1)OCCO2 (centres undefined)	-2	i	-7	34	0	3	2	1
NP(=O)(Oc1ccc(Cl)cc1)Oc1ccc(Cl)cc1	nt	i	2	-16	-5	-5	8	8
CSc1ccc(C(=O)C(C)(C)N2CCOCC2)cc1	-13	i	-16	9	1	3	5	0
CC(C)NS(=O)(=O)c1ccc(OCC(=O)N2CCN(Cc3ccccc3)CC2)c(Cl)c1	-5	i	4	nt	3	-3	-6	4
Cc1nc2c(c(=O)[nH]1)C(c1ccc([N+](=O)[O-])cc1)c1c(c3ccccc3oc1=O)O2 (centres undefined)	nt	i	6	nt	nt	nt	-3	3
CCOP(=O)(OCC)c1cc(CC)ccc1O	nt	i	14	6	4	4	-6	1
